Assay outcomes: PubChem, several laboratories
Beta2AR agonist: activates human beta-2 adrenergic receptor causing internalization. AID 504454. response, % (no concentration beside the values). 340,000 compounds, 0.43% hits. P07550. Am2.2-beta2AR cells, FAP receptor internalization, flow cytometry; reference of the scale not given here;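 active = response above a set limit, near 3 SD of response in nonfluorescent compounds, cut at about 42% in these data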;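 also: stock transfer was 100 nL into about 11 µL; a reference agonist was the positive control; negative values mostly stem from fluorescent compounds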
Target sequence (P07550 whole entry, looked up): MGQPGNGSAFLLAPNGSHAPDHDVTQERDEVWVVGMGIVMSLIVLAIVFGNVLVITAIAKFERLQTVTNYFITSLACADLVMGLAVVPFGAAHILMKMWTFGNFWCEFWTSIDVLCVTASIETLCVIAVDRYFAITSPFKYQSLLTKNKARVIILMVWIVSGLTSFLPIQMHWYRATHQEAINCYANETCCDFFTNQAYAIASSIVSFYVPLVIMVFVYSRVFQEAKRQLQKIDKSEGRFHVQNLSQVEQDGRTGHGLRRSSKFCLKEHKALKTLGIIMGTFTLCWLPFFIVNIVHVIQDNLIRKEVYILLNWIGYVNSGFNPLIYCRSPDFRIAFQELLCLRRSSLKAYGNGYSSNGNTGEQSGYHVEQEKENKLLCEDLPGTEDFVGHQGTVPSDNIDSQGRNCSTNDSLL
LANA-H2B inh: blocks KSHV LANA binding to histone H2A/H2B. Q9QR71. 320,000 compounds, 0.6% hits. cell-free LANA-H2A/H2B peptide, fluorescence polarization. inhibition, % (concentration not given with the values); in the data active = inhibition mostly above about 10%, no sharp cut-off; inactive = mostly below about 6.7%;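 also: stock transfer was 7.5 nL into about 10 µL; 0% = median of vehicle wells and 100% = median of positive control wells; one replicate is shown; the record names a cut of 25% in any replicate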
Vif A3G: HIV-1 Vif–A3G interaction blockers – biochemical, TR-FRET, GST-Vif 1-94, biotin-A3G peptide, dose response retest, primary screen (AID 1117319) | TR-FRET GST-Vif / biotin-A3G peptide binding; higher % means a stronger effect; test concentration not given here; strong numbers were not always called active | inhibition, %, or IC50 in µM where a hit was titrated | 260,000 compounds, 0.57% hits;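 active = above the screen mean plus three standard deviations and confirmed in dose response; inconclusive = results disagree or hit not tested in dose response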;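 also: Vif residues 1-94 fused to GST binding biotinylated APOBEC3G peptide 110-148; 0% = full assay without inhibitor and 100% = GST in place of GST-Vif; retest series ran down from 100 µM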
HNF4A DNA FP: change in binding of human HNF4 alpha to DNA. P41235. HNF4a-FITC DNA binding, fluorescence polarization, 1 h. activity change, % at 10 µM. 360,000 compounds, 0.3% hits. AID 1224865; in the data active = activity change above about 30%, passing the limit was not always enough;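 also: controls were the assay level and a saturating level of protein; the project sought stronger binding though the title names inhibitors; some compounds called inactive have numbers as strong as hits; positive values seem to mean higher polarization but the record does not say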
Target sequence (P41235 whole entry, looked up): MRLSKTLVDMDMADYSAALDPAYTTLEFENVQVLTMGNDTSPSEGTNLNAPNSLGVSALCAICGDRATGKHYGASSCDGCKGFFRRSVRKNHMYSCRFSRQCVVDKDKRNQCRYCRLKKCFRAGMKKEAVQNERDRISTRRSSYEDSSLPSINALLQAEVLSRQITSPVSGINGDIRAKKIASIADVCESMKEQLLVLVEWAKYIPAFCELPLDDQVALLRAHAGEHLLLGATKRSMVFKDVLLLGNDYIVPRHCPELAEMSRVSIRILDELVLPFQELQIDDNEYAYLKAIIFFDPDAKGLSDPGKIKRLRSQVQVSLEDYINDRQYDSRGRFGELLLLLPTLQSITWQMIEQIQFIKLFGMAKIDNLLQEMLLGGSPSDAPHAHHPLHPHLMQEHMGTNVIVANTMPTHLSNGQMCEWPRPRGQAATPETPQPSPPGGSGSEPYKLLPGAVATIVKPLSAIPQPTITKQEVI
Bfl-1 A1 inh: inhibitors of the anti-apoptotic protein A1, read as caspase activation | MEF A1-2A-BIM cells, Caspase-Glo 3/7 luminescence, 3 h; percent of clofoctol response, vehicle zero | caspase activation, % (no concentration beside the values) | 330,000 compounds, 0.066% hits | AID 2462;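 active = over half of replicate activation scores above 10%, or exactly half above 10 with the replicate mean above 10; inconclusive = replicate mean below 10 yet half the replicates above 10; inactive = over half of replicates below 10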;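 also: wells of about 30 µL received 50 nL stock; many hits fall short of the cut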
UCH37 DUB inh: inhibitors of human deubiquitinating enzyme UCH37; inhibition, % (no concentration beside the values); 330,000 compounds, 0.33% hits; purified proteasome/UCH37, Ub-AMC cleavage fluorescence; AID 588478;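 active = mean of two replicates above 20%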;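 also: 0% = compound-free wells with enzyme and 100% = wells lacking proteasome; stock transfer was 100 nL into about 20 µL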
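Schedule: 30 min plus 25 min, room temperature / Material: human UCH37 within purified proteasomes / Technique: AMC fluorescence intensity at 355/460 nm / Buffer or medium: pH 7.4 Tris-HCl (50 mM) with ovalbumin, ATP-MgCl2, DTT / Controls: wells without proteasome as full block, compound-free enzyme plus substrate as uninhibited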
Ecoli growth: E. coli growth inhibition. Escherichia coli growth, OD600, 23 h; stronger effect = lower value. OD600 absorbance (no concentration beside the values). 330,000 compounds, 0.21% hits;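 active = OD600 absorbance below the run mean of sample wells minus 3.6 SD, in any replicate, cut at about 0.56 in these data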;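 also: stock transfer was 300 nL into about 60 µL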
* = called active by the depositor.

Screening CC1CCCN(S(=O)(=O)c2ccc(C(=O)Nc3nnc(-c4ccco4)o3)cc2)C1 (stereo unspecified) returned Beta2AR agonist 3, LANA-H2B inh 4.3, Vif A3G 5%, HNF4A DNA FP -0.8, Bfl-1 A1 inh 0.1, UCH37 DUB inh 5.5 and Ecoli growth 0.7.
Screening CCC(=O)C1CCCN(C(=O)CCc2nnc(-c3ccc4c(c3)OCO4)o2)C1 (stereo unspecified) returned Beta2AR agonist 1, LANA-H2B inh 1.6, HNF4A DNA FP -4.9, Bfl-1 A1 inh 0.4, UCH37 DUB inh 2.1 and Ecoli growth 0.68.
Screening Nc1nccnc1C(=O)OCc1nc2sc3c(c2c(=O)[nH]1)CCCC3 returned Beta2AR agonist 5, LANA-H2B inh 2.6, Vif A3G -7%, HNF4A DNA FP 8.7, Bfl-1 A1 inh 0.4, UCH37 DUB inh -68 and Ecoli growth 0.71.
For Cc1cccc2sc(NC(=O)CSc3nnnn3C)nc12 the results were Beta2AR agonist 4, LANA-H2B inh -0.8, Vif A3G -2%, HNF4A DNA FP -4.0, Bfl-1 A1 inh -0.8, UCH37 DUB inh 4.1 and Ecoli growth 0.73.
For COc1ccc(/C=C2\CCCC3C2=NN(C(=O)COC(=O)CNC(=O)c2ccccc2)C3c2ccc(OC)cc2)cc1 (stereo unspecified) the results were Beta2AR agonist 7, LANA-H2B inh 3.6, Vif A3G -3%, HNF4A DNA FP 1.9, Bfl-1 A1 inh -1.0, UCH37 DUB inh -56 and Ecoli growth 0.74.
Screening O=C1CC(C(=O)Nc2cccc(Cl)c2)n2ncnc2N1 (stereo unspecified) returned Beta2AR agonist -1, LANA-H2B inh 4.5, Vif A3G 4%, HNF4A DNA FP 0.5, Bfl-1 A1 inh 0.6, UCH37 DUB inh 2.6 and Ecoli growth 0.71.
For Cc1ccc(C)c(C2C(C#N)=C(N)Oc3cc(C)oc(=O)c32)c1 (stereo unspecified) the results were Beta2AR agonist 0, LANA-H2B inh 0.7, Vif A3G 1%, HNF4A DNA FP 1.3, Bfl-1 A1 inh 0.3, UCH37 DUB inh 2.4 and Ecoli growth 0.75.
Screening O=S(=O)(c1ccc(Cl)s1)N1CCC(Cc2ccccc2)CC1 returned Beta2AR agonist -3, LANA-H2B inh 1.7, Vif A3G 17%, HNF4A DNA FP 2.6, Bfl-1 A1 inh 0.2, UCH37 DUB inh 0.7 and Ecoli growth 0.7.
Screening COC(=O)c1sc2nc3c(c(-c4cccs4)c2c1N)CCCC3 returned Beta2AR agonist 1, LANA-H2B inh -1.5, Vif A3G 5%, HNF4A DNA FP 1.3, Bfl-1 A1 inh 0.4, UCH37 DUB inh -43 and Ecoli growth 0.71.
For O=C(O)CC/C(=N\Nc1ccccc1[N+](=O)[O-])c1cccs1 the results were Beta2AR agonist 5, LANA-H2B inh 2.0, Vif A3G -4%, HNF4A DNA FP 0.0 and Bfl-1 A1 inh 2.2.
For O=C(c1cn(-c2ccccc2)nc1-c1cccc([N+](=O)[O-])c1)N1CCCCC1 the results were Beta2AR agonist -15, LANA-H2B inh 4.1, Vif A3G 22%, HNF4A DNA FP 0.4, Bfl-1 A1 inh 0.4, UCH37 DUB inh 2.8 and Ecoli growth 0.72.
`C/C(N)=C(/C#N)C(=O)COC(=O)c1cc(-c2cccc3ccccc23)nc2ccccc12` gave Beta2AR agonist 0, LANA-H2B inh -8.9, Vif A3G 13%, HNF4A DNA FP -1.9, Bfl-1 A1 inh -0.1 and UCH37 DUB inh -2.9.
For N#Cc1ccsc1NC(=O)CN1CCCCC1 the results were Beta2AR agonist -1, LANA-H2B inh -0.3, Vif A3G -2%, HNF4A DNA FP 1.7, Bfl-1 A1 inh 0.3, UCH37 DUB inh 0.5 and Ecoli growth 0.72.
For Fc1ccc(CCNc2ncnc3[nH]ncc23)cc1 the results were Beta2AR agonist 0, Vif A3G 1%, HNF4A DNA FP -5.2, UCH37 DUB inh -6.8 and Ecoli growth 0.65.
Nc1ccc(-c2ccc(N)c([N+](=O)[O-])c2)cc1[N+](=O)[O-] was read as Beta2AR agonist 0, LANA-H2B inh 5.2, Vif A3G 0%, HNF4A DNA FP 3.4, Bfl-1 A1 inh 2.0, UCH37 DUB inh 5.2 and Ecoli growth 0.68.
Screening CCCNC(=O)CSc1nnc(-c2ccco2)n1C returned Beta2AR agonist 12, LANA-H2B inh 0.2, Vif A3G -10%, HNF4A DNA FP 28, Bfl-1 A1 inh -0.1, UCH37 DUB inh 0.7 and Ecoli growth 0.7.
Screening Cc1ccccc1OCC(=O)Nc1ccc2c(c1)C(=O)N(CCC(=O)O)C2=O returned Beta2AR agonist 2, LANA-H2B inh 3.1, HNF4A DNA FP -2.4, Bfl-1 A1 inh 1.4, UCH37 DUB inh 4.9 and Ecoli growth 0.7.
`C=CC(=O)NC(NC(=O)C=C)c1ccccc1F` gave Beta2AR agonist 7, LANA-H2B inh 3.9, Vif A3G 8%, HNF4A DNA FP -1.5, Bfl-1 A1 inh 1.2, UCH37 DUB inh 0.7 and Ecoli growth 0.68.
O=C(/C(=C/c1ccccc1)n1cncn1)c1ccc(Cl)cc1Cl was read as Beta2AR agonist 21, LANA-H2B inh -4.1, HNF4A DNA FP -1.8, Bfl-1 A1 inh -0.1, UCH37 DUB inh 1.0 and Ecoli growth 0.68.
For CC(=O)c1c(COC(=O)c2ccco2)nc2ccccc2[n+]1[O-] the results were Beta2AR agonist 9, LANA-H2B inh 2.5, Vif A3G 11%, HNF4A DNA FP -1.4, Bfl-1 A1 inh 0.8, UCH37 DUB inh 6.4 and Ecoli growth 0.72.
`CCSc1nnc(NC(=O)Cc2ccc(OC)c(S(=O)(=O)N3CCOCC3)c2)s1` gave Beta2AR agonist 3, LANA-H2B inh -0.2, Vif A3G -6%, HNF4A DNA FP 3.3, Bfl-1 A1 inh -1.1, UCH37 DUB inh 6.1 and Ecoli growth 0.7.
For COC(=O)C(NS(=O)(=O)c1cccc(S(=O)(=O)NC(C(=O)OC)c2ccccc2)c1)c1ccccc1 (stereo unspecified) the results were Beta2AR agonist 4, LANA-H2B inh 4.7, HNF4A DNA FP 8.8, Bfl-1 A1 inh -0.5 and UCH37 DUB inh 3.4.
COc1ccc(OCC(O)CNC(=O)Nc2cccc3ccccc23)cc1 (stereo unspecified) was read as Beta2AR agonist -5, LANA-H2B inh -6.4, Vif A3G -11%, HNF4A DNA FP -2.5, Bfl-1 A1 inh -0.3, UCH37 DUB inh 3.9 and Ecoli growth 0.72.
CCc1cccc2c(C(=O)COC(=O)/C=C/c3ccc(O)c(OC)c3)c[nH]c12 was read as Beta2AR agonist 9, LANA-H2B inh -4.0, HNF4A DNA FP -1.3 and Bfl-1 A1 inh 0.0.
O=c1oc2cc(OCc3c(F)c(F)c(F)c(F)c3F)ccc2cc1-c1ccccn1 was read as Beta2AR agonist 7, LANA-H2B inh -4.5, HNF4A DNA FP 0.1, Bfl-1 A1 inh -0.7, UCH37 DUB inh -222 and Ecoli growth 0.7.
Cc1ccccc1Cn1c(Cc2ccccc2)nc2ccccc21 was read as Beta2AR agonist 16, LANA-H2B inh -2.7, Vif A3G 0%, HNF4A DNA FP 1.4, Bfl-1 A1 inh 0.3, UCH37 DUB inh 2.9 and Ecoli growth 0.68.
`CCOC(=O)Cc1csc(NC(=O)Nc2ccc(C)cc2)n1` gave Beta2AR agonist 2, LANA-H2B inh -1.3, Vif A3G -1%, HNF4A DNA FP 3.4, Bfl-1 A1 inh 0.0, UCH37 DUB inh -1.2 and Ecoli growth 0.59.
For Cn1c(Oc2ccccc2NCc2cc(Br)ccc2O)cc(=O)n(C)c1=O the results were Beta2AR agonist 14, LANA-H2B inh -3.1, Vif A3G 9%, HNF4A DNA FP 2.1, Bfl-1 A1 inh -2.0 and Ecoli growth 0.68.
`O=C(CCCCCN1C(=O)[C@@H]2Cc3ccccc3CN2C1=O)NCCc1ccccc1` gave Beta2AR agonist -3, LANA-H2B inh -3.2, HNF4A DNA FP -1.8, Bfl-1 A1 inh 0.0, UCH37 DUB inh 2.5 and Ecoli growth 0.67.
`CCOc1ccc(NCc2cccn2-c2nnc(N3CCC(C(=O)NCCCN4CCCCC4C)CC3)s2)cc1` (stereo unspecified) gave Beta2AR agonist 0, LANA-H2B inh 1.2, HNF4A DNA FP 3.3, Bfl-1 A1 inh -0.7, UCH37 DUB inh 0.5 and Ecoli growth 0.7.
CN(C)c1ccc(CC2C(=O)Nc3ccccc32)cc1 (stereo unspecified) was read as Beta2AR agonist 0, LANA-H2B inh 5.8, Vif A3G inconclusive, HNF4A DNA FP -5.2, Bfl-1 A1 inh -0.5, UCH37 DUB inh 7.3 and Ecoli growth 0.66.
Screening COc1ccc(NC(=O)COC(=O)C2C3CC4OC(=O)C2C4C3)cc1 (stereo unspecified) returned Beta2AR agonist 7, LANA-H2B inh -1.1, HNF4A DNA FP 7.0, Bfl-1 A1 inh -0.4, UCH37 DUB inh 4.0 and Ecoli growth 0.71.
`Cc1oc(-c2ccc(Cl)cc2)nc1CN1CCCC(C(=O)NCCCN2CCOCC2)C1` (stereo unspecified) gave Beta2AR agonist 8, LANA-H2B inh 3.4, Vif A3G -1%, HNF4A DNA FP 4.0, Bfl-1 A1 inh 0.1, UCH37 DUB inh 3.1 and Ecoli growth 0.66.
Screening C[C@]12c3[nH]c4ccccc4c3CCN1C(=O)C(CC(=O)NCCCn1ccnc1)C[C@@H]2C(=O)N1CCCCC1 (stereo partly specified) returned Beta2AR agonist -12, LANA-H2B inh inactive, Vif A3G 6%, HNF4A DNA FP 0.3, Bfl-1 A1 inh -0.2, UCH37 DUB inh 0.7 and Ecoli growth 0.7.
Screening CC(C)(C)c1ccc(C(=O)NC(=O)CSc2n[nH]c(N)n2)cc1 returned Beta2AR agonist 9, LANA-H2B inh -3.7, HNF4A DNA FP 3.0, Bfl-1 A1 inh 0.6, UCH37 DUB inh 5.6 and Ecoli growth 0.61.
Cc1nnc2sc(-c3ccncc3)nn12 was read as Beta2AR agonist 1, LANA-H2B inh -1.0, Vif A3G -8%, HNF4A DNA FP 1.8, Bfl-1 A1 inh 0.6, UCH37 DUB inh -0.8 and Ecoli growth 0.68.
CC(NC(=O)COC(=O)CCc1nc(=O)c2ccccc2n1C)c1ccccc1 (stereo unspecified) was read as Beta2AR agonist -10, LANA-H2B inh 2.9, Vif A3G -2%, HNF4A DNA FP -3.5, Bfl-1 A1 inh 1.1, UCH37 DUB inh -1.4 and Ecoli growth 0.66.
CCOC(=O)CC1CCCCN1C(=O)c1ccc2nc(CCOC)oc2c1 (stereo unspecified) was read as Beta2AR agonist 15, LANA-H2B inh 0.1, HNF4A DNA FP 1.7, Bfl-1 A1 inh -0.9, UCH37 DUB inh 4.8 and Ecoli growth 0.68.
For O=C(COC(=O)c1cc(S(=O)(=O)N2CCCC2)ccc1O)Nc1ccccc1Br the results were Beta2AR agonist 9, LANA-H2B inh 0.2, HNF4A DNA FP 2.2, Bfl-1 A1 inh 1.7, UCH37 DUB inh -8.8 and Ecoli growth 0.65.
For CCCN(C(=O)CSc1nnnn1C)c1c(N)n(Cc2ccccc2)c(=O)[nH]c1=O the results were Beta2AR agonist -2, LANA-H2B inh -1.8, HNF4A DNA FP 0.9, Bfl-1 A1 inh -1.3, UCH37 DUB inh 0.3 and Ecoli growth 0.67.
Screening Cc1cccc(Nc2nc(OCC#N)nc(N(C)C)n2)c1 returned Beta2AR agonist 1, LANA-H2B inh 7.2, Vif A3G 5%, HNF4A DNA FP 4.2, Bfl-1 A1 inh -1.3, UCH37 DUB inh 3.5 and Ecoli growth 0.69.
